Source: PubChem BioAssay
NPR1 antag: Natriuretic polypeptide receptor (hNpr1) antagonism - Primary qHTS; AID 1347048, 2019; 76,000 compounds, 1.6% hits; HEK293 hNpr1 GloSensor cGMP, ANP-stimulated luminescence; Potency, µM (series often up to 46.3 µM), without a hit: at the highest dose activity change, negative = inhibition, hits mostly inhibitors; active = well fitted inhibition curve with a large enough effect; inconclusive = small, poorly fitted or top-dose-only effect; inactive = no such curve, though single readings can be large or run the other way;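 further: nearly all actives have a fitted effect of over 60% in size; nearly all hits also lower the signal before the agonist is added; a reference antagonist and vehicle were the controls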
Target sequence (P16066 whole entry, looked up): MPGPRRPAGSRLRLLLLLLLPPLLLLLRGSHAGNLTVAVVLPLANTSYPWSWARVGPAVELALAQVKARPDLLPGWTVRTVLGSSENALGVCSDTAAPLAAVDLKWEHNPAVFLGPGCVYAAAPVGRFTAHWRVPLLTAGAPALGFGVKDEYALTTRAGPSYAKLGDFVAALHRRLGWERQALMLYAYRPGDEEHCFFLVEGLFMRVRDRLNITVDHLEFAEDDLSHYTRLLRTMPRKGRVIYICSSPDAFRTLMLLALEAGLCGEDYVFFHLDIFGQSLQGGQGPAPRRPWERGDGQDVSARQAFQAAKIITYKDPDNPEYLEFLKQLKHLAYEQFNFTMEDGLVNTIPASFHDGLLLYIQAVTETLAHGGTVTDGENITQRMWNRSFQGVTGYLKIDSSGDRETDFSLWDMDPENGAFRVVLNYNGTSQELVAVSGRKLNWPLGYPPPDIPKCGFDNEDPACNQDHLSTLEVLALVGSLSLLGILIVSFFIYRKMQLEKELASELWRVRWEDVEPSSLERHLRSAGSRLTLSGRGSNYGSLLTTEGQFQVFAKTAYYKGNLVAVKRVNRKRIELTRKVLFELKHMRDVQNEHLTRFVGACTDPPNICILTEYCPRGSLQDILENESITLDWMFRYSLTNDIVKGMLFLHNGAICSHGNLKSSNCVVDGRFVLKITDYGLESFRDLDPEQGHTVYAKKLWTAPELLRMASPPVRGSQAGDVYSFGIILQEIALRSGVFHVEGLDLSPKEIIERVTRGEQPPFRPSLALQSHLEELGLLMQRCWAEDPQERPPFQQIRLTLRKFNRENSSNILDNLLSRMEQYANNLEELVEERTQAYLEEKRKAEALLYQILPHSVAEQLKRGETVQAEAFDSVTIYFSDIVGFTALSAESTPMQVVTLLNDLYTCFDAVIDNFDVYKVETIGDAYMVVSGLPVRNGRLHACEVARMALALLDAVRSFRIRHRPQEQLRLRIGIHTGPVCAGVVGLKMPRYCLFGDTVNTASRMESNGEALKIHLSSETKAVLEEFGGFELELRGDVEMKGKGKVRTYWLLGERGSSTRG
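Compound pre-incubated 30 min at room temperature on GloSensor-loaded HEK293 cells stably carrying hNpr1 and the pGS-40F cGMP biosensor. Stimulation uses hNppA at 0.1 nM final; luminescence is taken at baseline and 20 min post-agonist.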
* marks the source's active call; other numbers are inactive results; ? = inconclusive; & = joins results of further samples; [ ] = dose if it differs, or a comment. On the % scale 0 is the no-effect control and ±100 the full control effect; potency means the concentration at half of the fitted maximal effect.

NPR1 antag,Compound
1%,COC[C@@H]1CN(c2ncccn2)C[C@H]1C(=O)NCc1ccccc1OC
6%[70.6 µM],CNC(=O)[C@@H](Cc1ccccc1)N1CCC[C@H]1C(=O)NCC1CC1
-18%,COc1cc(Cl)ccc1C(=O)NC1CCN(c2cc(-c3ccccc3)[nH]n2)CC1
?,Cc1ccc(C(=O)N2CCC(n3cc(-c4nc(-c5ccccc5)no4)nn3)C2)s1 (stereo not drawn)
2%,Cn1cc(CC(=O)N2CCCc3ncc(C(=O)NCCN4CCCC4)cc32)c2ccccc21
20%,Cc1cccc(C(=O)N2CCC(c3nc(C4CCOCC4)no3)C2)c1 (stereo not drawn)
2%,CC(=O)Nc1ccc(S(=O)(=O)N[C@H]2CO[C@H]3[C@@H]2OC[C@@H]3n2nnnc2Oc2ccc(-n3ccnc3)cc2)cc1
1%,COCCN1CCC(CN(Cc2ccncc2)C(=O)[C@@H]2C[C@@H]3C=C[C@H]2C3)CC1
1%[70.6 µM],O=C(CN1Cc2nc(OCC3CC3)ccc2OCC1=O)N1CCCC1
-5%[70.6 µM],COC(=O)C(=O)N[C@H]1C[C@@H](Cc2cc(CC(C)C)on2)C1(C)C
-1%,Cc1cc(C(=O)N2CCC3(CC2)CC(N2CCN(CC(C)C)CC2)CCO3)nn1C (stereo not drawn)
-15%,O=C(Nc1cccc(F)c1)[C@@H]1C[C@@H](c2ccc(F)cc2)N([S+](=O)([O-])c2cccnc2)C1
?,COc1cccc(CN2Cc3nc(-c4cnn(Cc5ccccc5)c4)ccc3OCC2=O)c1
-3%,CCn1ccc(C(=O)N2CCCCCCNC(=O)[C@@H]3CCCC[C@@H]32)n1
-15%,N#Cc1ccccc1CN1C[C@@H](CO)[C@H](NC(=O)c2ccccc2)C1
?,Cc1ccsc1C(=O)NC1CCN(c2cc(C(F)(F)F)ncn2)CC1
-6%[70.6 µM],COCCNc1ncccc1-c1noc([C@@H]2CCCN2C2CCOCC2)n1
28µM*,Cc1cc(-c2cc3c(cn2)CN(Cc2ccc(C(F)(F)F)cc2)CCN3)ccn1
0%[70.6 µM],COCc1cn(C[C@H]2C[C@@H](NC(=O)C3CCOCC3)[C@H](O)[C@@H]2O)nn1
3%,Cc1ccc([C@H]2CN(C(=O)CCc3c(C)nc4ncnn4c3C)C[C@@H]2N)o1
-1%,c1cc(-c2ccnc3nc(CCC4CCCC4)nn23)ccn1
3%,CN(C(=O)Cn1cccc1-c1nc(-c2ccccc2)no1)c1ccc(F)cc1
-1%[70.6 µM],F[C@@H]1CN(C2CCC2)C[C@@H]1OCc1nc2ncccc2[nH]1
3%,COc1ccc(-c2nnc3n2CCN(C(=O)c2ccc(C(F)(F)F)cc2)C3)cc1
-13%,CS(=O)(=O)N1CCC(OC2CCN(C(=O)C3CC3)CC2)CC1
7%,Cc1cc(C)nc(CNC(=O)[C@H]2CCC[C@@H](O)C2)n1
-12%,CCOc1cccc(CNC(=O)C2CCN(C(=O)c3ncn4c3COC(c3ccccc3)C4)CC2)c1 (stereo not drawn)
2%,O=C(CCC1CCCC1)N1CCC(Cc2nc(C3CC3)n[nH]2)CC1
6%,CC(C)CN1CC(C(=O)N(Cc2nccn2C)C2CC2)CC1=O (stereo not drawn)
-10%,Cc1ccccc1CCC1CCCN(C(=O)CCc2ccncc2)C1 (stereo not drawn)
2%,O=C(O)COc1ccc(-c2nccc3c2C(=O)N(Cc2c[nH]c4ccccc24)CC(CNC(=O)c2cccc(Cl)c2)O3)cc1 (stereo not drawn)
-25%,COC(=O)[C@@H]1Cc2c([nH]c3ccccc23)[C@H]2C[C@@H](NCc3ccccc3)C[C@@H](c3ccccc3F)N21
-11%,CN(C)C1CCN(Cc2cc3cc4c(cc3nc2-c2ccc(Cl)cc2)OCO4)C1 (stereo not drawn)
0%[70.6 µM],O=C(NC[C@H]1OC[C@@H](NCc2cnc[nH]2)[C@@H]1O)C1CCCC1
3%,CCc1nc2cc(N3CCCC(C(=O)NC(C)C)C3)cnc2nc1CC (stereo not drawn)
?,COCCNc1ncc(-c2cccc(NC(C)=O)c2)c2c1OCC2
-4%,CC(C)(C)CC(=O)NCc1cccnc1Oc1cccc(C(F)(F)F)c1
-4%,CN(Cc1cccc(CCN)c1)Cc1cccc2ncccc12
-21%,CNC(=O)N1CCC(C2CCN(C(=O)CCCc3ccccc3)C2)CC1 (stereo not drawn)
4%,CN1C(=O)C2(CCN(C(=O)C3CCCC3)CC2)c2ccccc21
-17%,COCCN1C(=O)c2cccn2CC1CNC(=O)NCc1ccc(F)cc1 (stereo not drawn)
-3%,Cc1ccc(NC(=O)Nc2ccc(C)n(CC(=O)Nc3ccc(C)cc3C)c2=O)cc1
0%,COc1ccc(OC)c(NC(=O)c2c(C)oc3ccn(Cc4cccc(F)c4)c(=O)c23)c1
3%,CCCNC(=O)c1noc(-c2ccc(C#N)cc2)n1
-1%,COc1cccc(CN2CCc3nn(Cc4ccccc4)c(=O)n3CC2)n1
6%,CNCc1cn(C2CCN(Cc3c(OC)ccc(F)c3F)CC2)nn1
3%[70.6 µM],CN1CCN(Cc2nc(C3(O)CCN(Cc4ccccc4)CC3)cs2)CC1
3%,O=C1NCCCCCCN(C(=O)NC2CCCCC2)[C@H]2C[C@H](C(=O)N3CCc4ccccc4C3)C[C@@H]12
7.1µM*,O=C1c2cnc(-c3ccc(Oc4ccccc4)cc3)nc2OCCN1CC1CC1
4%,CS(=O)(=O)N1C[C@H]2CCN(Cc3cc(F)c(F)cc3F)C[C@H]21
3%,OC[C@@H]1O[C@H](CNCc2ccc(F)cc2)[C@H](N2CCN(c3ccccc3)CC2)[C@@H]1O
-27%,COc1ccc(-c2noc(CCCC(=O)N3CCC(c4nc(C5CCOCC5)no4)C3)n2)cc1OC (stereo not drawn)
2%,CS(=O)(=O)Nc1ccc(C2(C(=O)NCCN3CCCCC3)CCCCC2)cc1
2%,CNCC(=O)N1CCN(Cc2nc(C3CC3)no2)CC(O)C1 (stereo not drawn)
6%,COC1C(=O)N(C2CCN(C(=O)Nc3ccc4c(c3)OCCO4)CC2)C12CCOCC2 (stereo not drawn)
-4%,Cc1nccn1CC1CCN(C(=O)c2cn(C3CCC(N)CC3)nn2)CC1 (stereo not drawn)
2%,O=C(NCc1ccccc1)c1cn(C2CN(C(=O)NCC3CCCO3)C2)nn1 (stereo not drawn)
3%,CC(C)NC(=O)C1CC(c2ccc(F)cc2)=NO1 (stereo not drawn)
-6%[70.6 µM],N#Cc1cccc(-c2n[nH]c3c2CC(=O)N(Cc2ccccn2)C3)c1
3%[70.6 µM],O=C1N(Cc2ccccc2F)CCOC12CCN([S+](=O)([O-])c1cccnc1)CC2

Carrying on:
NPR1 antag,Compound
7%,c1cc(-c2noc(C3CCOCC3)n2)ccc1OC1CNC1
-2%,COc1cccc(C(=O)NC2CCc3nnc(C4CC4)n3CC2)c1C (stereo not drawn)
-1%,COC(=O)c1ccccc1NC(=O)c1c(OC)cc(=O)n2c1CCCC2
-30%[70.6 µM],CC1(COCC2CC2)COc2ccc(C(=O)Nc3ccccc3)cc2N1 (stereo not drawn)
-1%,CCOc1ccc(C(=O)NC2CCN(c3cnn(C)c(=O)c3)CC2)cc1
-13%,CCCCNC(=O)c1ccc2c(c1)n(Cc1ccc(F)cc1)c(=O)c1ccnn12
-18%[70.6 µM],CC(C)(Oc1nn(CCOc2ccccc2)c2ccccc12)C(=O)NCc1ccncc1
-27%,CCN(CC)C(=O)CCc1c(C)nn(-c2cccc(C)c2)c1Oc1ccc(F)cc1F
-15%,Cc1ccsc1C(=O)N1CCCn2cc(-c3cccc(C#N)c3)nc21
-2%[70.6 µM],O=C1[C@@H]2C[C@@H](O)CN2C2(CN(C3CCCCC3)C2)C(=O)N1Cc1ccccc1F
3%,CC(C)c1ccc(C(=O)N2CC[C@H](N(C)C)[C@H](CCC(=O)O)C2)c(=O)[nH]1
-11%,COCCOCC(=O)N1Cc2ccccc2OC2(CCN(C(C)C)CC2)C1
6%,C#CCN(Cc1ccco1)Cc1nc(-c2ccc(C(F)(F)F)cc2)oc1C
-4%,CCOc1cc(=O)n2c(c1C(=O)Nc1cccc(C(C)C)c1)CCCC2
5%,Cc1cn2nc(C(=O)N3CCC(NC(=O)Cc4ccccc4Cl)CC3)cc2c(=O)[nH]1
-21%,Cc1ccc(C(=O)NC2CCN(c3cc(-c4ccccc4)[nH]n3)CC2)cc1C
-4%,Cc1ccc(-n2c(C3CCN(C(=O)c4ccc(C(F)(F)F)cc4)CC3)n[nH]c2=O)cc1
?,CCC1=C(C(=O)OC)C(c2ccc(C)cc2C)N2C(CC(=O)N3CCOCC3)=CSC2=N1 (stereo not drawn)
0%,CN(Cc1cnccn1)Cc1ccccc1OCC(O)CN(C)C1CCCCC1 (stereo not drawn)
-5%,O=C(c1cccc(Cl)c1)N1CCC(c2nn(-c3ccccc3)c(=O)[nH]2)CC1
-24%,O=C(c1ccccn1)N1CCOc2c(O)cc(-c3cccc(Cl)c3)cc2C1
?,COc1ccc(CN2CCC3(CC(c4ccc(OC)cc4)=NO3)C2)cc1 (stereo not drawn)
-17%,CCCNC(=O)Cn1c(C)ccc(NC(=O)Nc2ccc(OC)cc2)c1=O
-7%[70.6 µM],COc1ccc(CN2CC(C)(NC(C)=O)C2)c2ccccc12
6%[70.6 µM],O=C(O)CCn1ncc2cc(OCC3CCN(C(=O)CC4CC4)CC3)ccc21
-9%,CCOc1cccc(CN2C[C@@H](NC(=O)COC)C[C@H]2CO)c1
-11%,O=C(NCc1ccc(Cl)cc1)c1noc(-c2ccc3c(c2)OCO3)n1
22%[70.6 µM],COc1ccccc1-n1c(=O)[nH]c2cccnc21
0%&1%[70.6 µM],O=C(C1CN(c2cccc(Cl)c2)C(=O)N1)N1CCCC1 (stereo not drawn)
-6%,COc1ccc(C(=O)N2CCCC3(C2)Nc2cccnc2NC3=NC2CCCC2)cn1 (stereo not drawn)
3%[70.6 µM],CC1=C[C@@H](CN2CCN(C)CC2)[C@H](C(C)C)C[C@H]1Cc1nnc(C)o1
2%,CCc1noc(-c2cn(C3CCN(C(=O)C(C)c4ccccc4)CC3)nn2)n1 (stereo not drawn)
4%,O=C(c1ccccc1OCC1CCCN(Cc2ccccn2)C1)N1CCCC1 (stereo not drawn)
-5%,CCCC(=O)NC1CCN(C(=O)N2CC3CC(C2)[C@H]2CCCC(=O)N2C3)CC1 (stereo partly drawn)
1%,COCc1cc(CNC(=O)C2COc3ccccc3C2)[nH]n1 (stereo not drawn)
-2%,O=C(Nc1ccc(Cl)cc1C(F)(F)F)N1CCC(n2cnnc2C2CC2)C1 (stereo not drawn)

Filtered by structure, the entries above containing sulfur
NPR1 antag,Compound
?,Cc1ccc(C(=O)N2CCC(n3cc(-c4nc(-c5ccccc5)no4)nn3)C2)s1 (stereo not drawn)
2%,CC(=O)Nc1ccc(S(=O)(=O)N[C@H]2CO[C@H]3[C@@H]2OC[C@@H]3n2nnnc2Oc2ccc(-n3ccnc3)cc2)cc1
-15%,O=C(Nc1cccc(F)c1)[C@@H]1C[C@@H](c2ccc(F)cc2)N([S+](=O)([O-])c2cccnc2)C1
?,Cc1ccsc1C(=O)NC1CCN(c2cc(C(F)(F)F)ncn2)CC1
-13%,CS(=O)(=O)N1CCC(OC2CCN(C(=O)C3CC3)CC2)CC1
3%[70.6 µM],CN1CCN(Cc2nc(C3(O)CCN(Cc4ccccc4)CC3)cs2)CC1
4%,CS(=O)(=O)N1C[C@H]2CCN(Cc3cc(F)c(F)cc3F)C[C@H]21
2%,CS(=O)(=O)Nc1ccc(C2(C(=O)NCCN3CCCCC3)CCCCC2)cc1
3%[70.6 µM],O=C1N(Cc2ccccc2F)CCOC12CCN([S+](=O)([O-])c1cccnc1)CC2
-15%,Cc1ccsc1C(=O)N1CCCn2cc(-c3cccc(C#N)c3)nc21
?,CCC1=C(C(=O)OC)C(c2ccc(C)cc2C)N2C(CC(=O)N3CCOCC3)=CSC2=N1 (stereo not drawn)

More structures follow:
NPR1 antag,Compound
-1%,CCS(=O)(=O)N1CCC2(CC1)CN(C1CCC1)CC2COC (stereo not drawn)
-1%,COCC1CN(C(C)=O)CC12CCN(Cc1ccccc1OC)CC2 (stereo not drawn)
-18%[70.6 µM],Cc1nc(CN2Cc3nc(Nc4ccccc4)ccc3OCC2=O)cs1
17%,CC(=O)N1CCC2(CC1)C(=NC1CCCCC1)NC(=O)N2c1cccnc1
-10%,COc1ccc(CCN2CC(NC(=O)Cn3ccc(C)n3)CC2=O)cc1 (stereo not drawn)
3%,COc1cc(OC)cc(C(=O)N2CCN(c3ncccn3)CC2C(=O)O)c1 (stereo not drawn)
-9%[70.6 µM],COC1CCC(C(=O)N2CC(COc3ccccc3)C3(C2)CN(c2ccccc2)C3)CC1 (stereo not drawn)
1%,CC(C)(NC(=O)c1cccs1)C(=O)N[C@@H]1CCOC[C@H]1OCC1CCC1
10%,Cc1cc2c(c(=O)n(-c3ccc(F)cc3)c(=O)n2CC(=O)Nc2ccccc2F)n1C
-14%,COc1cccc(CN2CCCC(N3CCN(c4cccc(C(F)(F)F)c4)CC3)C2)c1O (stereo not drawn)
-1%,Cc1ncccc1C(=O)N1CC(=O)N(C2CCCCC2)CC(OCc2ccccc2)C1 (stereo not drawn)

Some of the compounds tested. The share of hits here may be higher or lower than overall.
